# From PubChem BioAssay
# gsp antagonist: antagonizes gsp, the McCune-Albright syndrome mutation; gsp-mutant cells, cAMP HTRF, 30 min; control for the full effect not named in the record; Potency, µM (doses to about 76.9 µM), for inactives: at the highest dose activity change, negative = inhibition, most hits filed as inhibitors; 340,000 compounds, 0.4% hits; active = falling curve of any shape with a large fitted effect; inconclusive = falling curve, mostly with a smaller effect; inactive = flat or rising curve; cell line not stated here;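 note: intracellular cAMP measured with PDE inhibitor Ro 20-1724 present during compound exposure; potency is the fitted concentration of half-maximal effect; % is set by controls: 0 for no effect and ±100 for the full control effect; nearly all actives have a fitted effect of over 65% in size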
#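 Cells in G418 medium, seeded 16-24 h, 37C; buffer exchange to DPBS + 1 mM CaCl2, 0.5 mM MgCl2, 0.05% BSA; cpds in DMSO + […] (300 uM stock), 30 min 37C; HTRF cAMP detection.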
# D2 agonist: human D2 receptor agonism in beta-arrestin assay. P14416. DiscoveRx PathHunter D2 beta-arrestin, luminescence, 90 min; 100% = 57 uM dopamine signal. activation, % (concentration not given with the values). 360,000 compounds, 0.084% hits; in the data active = activation above about 40%; inconclusive = about 15% to 40%; inactive = below about 15%; note: the text of the record calls up to 30% inactive
# Target sequence (P14416 whole entry, looked up): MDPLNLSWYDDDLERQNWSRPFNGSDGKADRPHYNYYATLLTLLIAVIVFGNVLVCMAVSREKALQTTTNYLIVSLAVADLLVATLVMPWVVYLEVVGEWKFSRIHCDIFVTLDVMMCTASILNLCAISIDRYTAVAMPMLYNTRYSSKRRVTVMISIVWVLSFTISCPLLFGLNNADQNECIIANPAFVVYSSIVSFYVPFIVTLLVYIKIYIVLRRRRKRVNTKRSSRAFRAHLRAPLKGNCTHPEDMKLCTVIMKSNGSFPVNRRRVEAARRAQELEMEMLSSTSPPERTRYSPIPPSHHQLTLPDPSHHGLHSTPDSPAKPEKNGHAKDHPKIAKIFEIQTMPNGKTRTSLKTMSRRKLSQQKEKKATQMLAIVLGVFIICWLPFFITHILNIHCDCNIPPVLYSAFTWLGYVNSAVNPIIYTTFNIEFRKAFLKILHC
#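 DiscoveRx PathHunter D2 beta-arrestin cells (2,100/well) attached overnight, then compound-stimulated 90 min at 37 C in HBSS/10 mM HEPES/0.1% Tween-20 buffer; beta-galactosidase complementation read by luminescence after 1 h at ambient temperature. Dopamine 57 uM final (EC100) as control.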
# CtBP-E1A inh: CtBP/E1A binding inhibition | AlphaScreen GST-E1A/His-CtBP binding, 1536-well; active compounds read low; control for the full effect not named in the record | activity change, % (no concentration beside the values) | 340,000 compounds, 0.49% hits | AID 651724; in the data active means activity change below about -65%; inconclusive means about -30% to -65%; inactive means above about -30%; note: % is set by controls: 0 for no effect and ±100 for the full control effect
#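 In 5 uL wells, 23 nL compound meets equimolar GST-E1A and His-CtBP (5X stock 125 nM each) for 2 h, 37 °C. Beads (5X, 50 ug/mL) then 1 h, 37 °C, dark.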
# Six1-Eya2 blk: Six1/Eya2 interaction inhibition; activity change, % (concentration not given with the values); Q15475+O00167; 360,000 compounds, 0.56% hits; AlphaScreen GST-Six1/His-Eya2 binding, biochemical; active compounds read low; control for the full effect not named in the record; in the data active = activity change below about -65%; inconclusive = about -30% to -65%; inactive = above about -30%; note: % is set by controls: 0 for no effect and ±100 for the full control effect
#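 AlphaScreen with GST-Six1 and His-Eya2 (5X mix: 250 nM and 500 nM), glutathione donor and nickel acceptor beads; buffer 50 mM Tris pH 8.0, 300 mM NaCl, 1 mM TCEP; 1 h at 37 C in the dark.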
# gsp ag: gsp mutant agonism. Potency, µM (doses to about 76.9 µM), without a hit: top-dose activation (cAMP increase), hits mostly activators. gsp mutant cells, cAMP HTRF, 30 min; control for the full effect not named in the record. 340,000 compounds, 0.13% hits; active = well fitted activation curve with a large enough effect; inconclusive = small, poorly fitted or top-dose-only effect, or another doubt; inactive = no such curve, though single readings can be large or run the other way; cell line not stated here;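 note: phosphodiesterase inhibitor Ro 20-1724 added with compounds to block cAMP breakdown; potency is the fitted concentration of half-maximal effect; nearly all actives have a fitted effect of over 60% in size; about a fifth of the inactives were tested at one dose only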
#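 Cells stably selected in G418 were plated at 2000/well, grown 16-24 hr, then given compounds in DMSO with the PDE inhibitor […] (300 uM solution added) for 30 min at 37C; cAMP was read by HTRF.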
# D2 PAM: human D2 receptor positive allosteric modulation; DiscoveRx D2 beta-arrestin cells, luminescence, 90 min; 100% = 57 uM dopamine signal; potentiation, % (test concentration not listed); P14416; 360,000 compounds, 0.23% hits; active = potentiation of 50% or more; inconclusive = 30% to 50%; inactive = 30% or less;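 note: compound concentration not given in the record; tested on top of an EC20 dose of dopamine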
#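 PathHunter beta-arrestin assay in DiscoveRx D2 cells. Compounds were added with an EC20 of dopamine (50 nM final) for 90 min at 37 deg C. Luminescence was read 1 h after detection reagent, with 57 uM dopamine as the EC100 control.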
# * marks the source's active call; other numbers are inactive results; ? = inconclusive; nt = no result given; [ ] = remark or other dose. Compounds were not picked by outcome; overall some 1.4% were active at least once.
SMILES,gsp antagonist,D2 agonist,CtBP-E1A inh,Six1-Eya2 blk,gsp ag,D2 PAM
O=C(Nc1ccc(Oc2ccc3c(c2)C(=O)N(c2ccc(O)cc2)C3=O)cc1)c1cccs1,-5%,2.5,4,2,6%,-13
O=C(CNC(=O)c1cccs1)Nc1ncccc1O,3%,5.1,-3,-13,12%[15.4 µM],-4
S=C(NCc1ccc(Cl)cc1)Nc1ccncc1,-6%,1.2,1,1,-2%,-8
Cc1cc(NC(=O)c2c(Cl)c(C)nn2C)no1,-3%,-3.1,0,-2,7%,-4
CCC(C)NC(=O)Cn1c(=O)n(-c2ccc(OC)cc2)c(=O)c2ccc(C(=O)NCc3ccc(C)cc3)cc21 (stereo not given),-8%,-2.7,4,4,-2%[15.4 µM],-8
OCC1OC(n2nnc3ccccc32)C(O)C(O)C1O (stereo not given),-2%,0.1,3,5,3%,0
CCOc1ccc(C(=O)Nc2ccccc2N2CCN(C(=O)c3ccccc3)CC2)cc1[N+](=O)[O-],-14%,-0.3,-16,-2,-47%[inhibitor],20
Cc1ccc(/C=N/NC(=O)c2csc(C)c2)o1,0%,-0.6,-2,-3,-51%[inhibitor],-6
COc1ccccc1NS(=O)(=O)c1cc(NC(=O)c2[nH]c(C)c(C(C)=O)c2C)ccc1N1CCOCC1,-38%,1.8,-17,-17,-35%[inhibitor],-11
CCN1CCN(CC(=O)N/N=C/c2ccc(F)cc2F)CC1,11%,-0.8,-16,3,-3%,3
O=C(COC(=O)c1ccc([N+](=O)[O-])o1)Nc1cccc(S(=O)(=O)N2CCCCC2)c1,2%,10.0,4,-27,-1%[15.4 µM],24
CCOP(=O)(OCC)C(Nc1ccc(C)cc1)c1ccco1 (stereo not given),-4%,0.5,-3,4,-24%,-10
CNC(=O)/C=C/c1cccc(C(F)(F)F)c1,3%,3.1,nt,5,-2%,-6
C=CC[C@@H](CC(=O)N[C@H](CO)Cc1ccccc1)C(=O)N[C@H](C)COC(=O)[C@@H](CC=C)Cc1ccc(F)cc1,-8%,5.5,1,-5,nt,9
O=[N+]([O-])c1ccc(Cl)c(/C=N/n2c(C3CCCCC3)n[nH]c2=S)c1,4%,1.9,0,9,-25%,-1
COc1cc(CNC(=O)c2cc(-c3ccc(F)cc3OC)n[nH]2)cc(OC)c1,nt,4.5,-6,-6,nt,-13
O=C(NCCNC(=O)c1cc(Cl)ccc1Cl)c1ccco1,1%,0.2,6,-2,8%,-2
COCCOC(=O)c1[nH]c2c(c1C)C(=O)CC(c1ccc(OC)c(OC)c1)C2 (stereo not given),-18%,-0.3,-4,-2,23%,-4
CC(NC(=S)NCc1ccc(F)cc1)C12CC3CC(CC(C3)C1)C2 (stereo not given),-22%,-11,-4,6,7%[15.4 µM],-8
Cc1oc(-c2ccccc2Cl)nc1CSc1nc2c(c(=O)[nH]1)CCCC2,0%,-4.2,nt,7,-14%,-7
Cc1ccc(C(=O)/C=C/c2ccc(Br)cc2)o1,-3%,-2.9,6,0,-38%[inhibitor],-7
COc1ccccc1CCNC(C)CCc1ccc(O)cc1 (stereo not given),1%,0.5,3,-1,-5%,-2
O=c1nc(N2CCCCC2)nc2n1CCO2,5%,2.2,6,0,-3%,-5
O=C(Nc1ncn[nH]1)c1ccc(Cl)cc1Cl,16%,-2.3,3,0,-9%[15.4 µM],16
Cc1ccc(SCc2c(-c3ccccc3)nn(C)c2Cl)cc1,4%,-2.9,36,33,4%,-14
CC(C)[C@H](NC(=O)NCc1ccc(F)cc1)C(=O)O,3%,-0.3,nt,6,-1%,-6
CC(C)N1CCC(N2CCN(CCCn3cccn3)CC2CCO)CC1 (stereo not given),12%,-6.3,nt,10,-56%[inhibitor],-7
CC(C)C(=O)Nc1ccc(NC(=S)NC(=O)c2ccc([N+](=O)[O-])cc2)cc1,-2%,-0.5,-10,-19,11%,-2
CCc1ccc(S(=O)(=O)NCc2csc(C)n2)cc1,11%,-0.8,8,-4,11%,-1
C/C(=N\NC(=O)c1cccnc1)c1nnn(-c2nonc2N)c1C,2%,4.7,nt,4,-4%,-4
O=C(NNc1c(Cl)cccc1Cl)c1c(F)cccc1Cl,-3%,1.1,7,5,33%,-2
COC(=O)c1ccc(-c2ccc(/C=N/NC(=O)CC3(C)OCCCO3)o2)cc1,-13%,0.5,7,4,16%,-2
Cc1ccc(S(=O)(=O)N2CCCCC2CCNC(=O)C(=O)NCc2ccccc2)cc1 (stereo not given),29%,-0.6,5,-3,-4%,-8
COC(=O)Cn1c(CCC(=O)O)ccc1-c1ccccc1,-14%,-3.1,1,2,-38%[inhibitor],-6
CC(=O)Oc1ccc(-c2cccc(C(=O)N(C)c3ccc(O)cc3)c2)cc1,5%,0.9,8,8,-2%,-4
COc1ccc(-c2nc(CS(=O)CC(=O)NCCc3ccc(C)cc3)c(C)o2)cc1OC (stereo not given),-2%,7.7,8,4,-38%[inhibitor],-9
COC(=O)c1sc(NC(=O)COC(=O)C2CCC2)c(C(=O)OC)c1C,-1%,-9.0,6,7,-11%,17
CCOC(=O)C1CCCN(C(=O)CCCn2nc(C)n3c(cc4sccc43)c2=O)C1 (stereo not given),-6%,-0.9,5,-3,-85%,-3
C=CCn1c(C(C)NC(=O)c2cccc(C)c2)n[nH]c1=S (stereo not given),9%,-6.5,nt,-5,-12%,-6
COc1ccc(N(Cc2cc(=O)[nH]c3ccccc23)C(=O)C(C)C)cc1,-2%,3.4,nt,2,14%,13
O=C(COC(=O)c1cccs1)NCC1CCCCC1,?,1.4,2,9,24%[15.4 µM],-4
O=C(Nc1nnc(CCN2CCOCC2)s1)C1CCCCC1,-7%[15.4 µM],-2.7,3,2,12%,-15
Cc1ccc(CNC(=O)C2CCN(S(=O)(=O)c3ccc4c(c3)CC(C)N4C(=O)C3CCC3)CC2)o1 (stereo not given),-17%,7.0,nt,-18,-2%,-9
Cc1ccc(C)c(NC(=O)CN(C)C(=O)COc2cccc3c2OC(C)(C)C3)c1,-10%,4.2,0,2,1%[15.4 µM],-13
COCCn1nnnc1C(c1ccccn1)N1CCN(c2cc(Cl)ccc2C)CC1 (stereo not given),-6%,-4.9,-7,-2,-1%,-14
CCOc1ccccc1/C=N/Nc1cc(C)nc2ccc(C)cc12,-26%,-5.7,-4,-25,2%[15.4 µM],-10
CCOC(=O)C1=CCN(S(=O)(=O)c2ccc(F)cc2)C1c1cccc(Cl)c1 (stereo not given),nt,-6.5,3,7,nt,-4
COc1cc2[nH]c(=O)n(Cc3ccc(C(=O)NCC4CCCO4)cc3)c(=O)c2cc1OC (stereo not given),10%,-2.3,-4,-9,-9%,3
O=C(CC1SCCNC1=O)Nc1ccc(Cl)cc1 (stereo not given),13%,-2.6,0,2,8%[15.4 µM],-7
CCOC(=O)c1sc(NC(=O)Cc2ccccc2OC)nc1C,-3%,-1.0,nt,2,-17%,4

# 4 compounds drawn at random from those above, as already listed:
SMILES,gsp antagonist,D2 agonist,CtBP-E1A inh,Six1-Eya2 blk,gsp ag,D2 PAM
CCOc1ccccc1/C=N/Nc1cc(C)nc2ccc(C)cc12,-26%,-5.7,-4,-25,2%[15.4 µM],-10
CC(C)C(=O)Nc1ccc(NC(=S)NC(=O)c2ccc([N+](=O)[O-])cc2)cc1,-2%,-0.5,-10,-19,11%,-2
CCOc1ccc(C(=O)Nc2ccccc2N2CCN(C(=O)c3ccccc3)CC2)cc1[N+](=O)[O-],-14%,-0.3,-16,-2,-47%[inhibitor],20
CCC(C)NC(=O)Cn1c(=O)n(-c2ccc(OC)cc2)c(=O)c2ccc(C(=O)NCc3ccc(C)cc3)cc21 (stereo not given),-8%,-2.7,4,4,-2%[15.4 µM],-8

# Some of these compounds in order of the D2 PAM value, falling:
compound	D2 PAM
CCOC(=O)c1sc(NC(=O)Cc2ccccc2OC)nc1C	4
COc1cc2[nH]c(=O)n(Cc3ccc(C(=O)NCC4CCCO4)cc3)c(=O)c2cc1OC (stereo not given)	3
CCOc1ccccc1/C=N/Nc1cc(C)nc2ccc(C)cc12	-10

# Continued.
SMILES,gsp antagonist,D2 agonist,CtBP-E1A inh,Six1-Eya2 blk,gsp ag,D2 PAM
O=C(c1ccc(NS(=O)(=O)c2ccc(F)cc2)cc1)N1CCCCCC1,-1%,-0.4,2,8,16%[15.4 µM],-1
Cc1ccc(C(=O)NC(C)C2CCCO2)o1 (stereo not given),4%,4.5,0,13,4%,-3
OC[C@@H]1CN(CCN2CCOCC2)C[C@H](n2cnc3c(NC4CCC4)ncnc32)O1,nt,1.6,6,6,nt,-15
CCC(C)NC(=O)CCn1c(=O)c2cccn2c2ccc(F)cc21 (stereo not given),5%,-0.9,-3,19,-3%[15.4 µM],-8
CC(C)(C)SCCNS(=O)(=O)c1ccccc1,1%,-3.2,-12,-3,-47%[inhibitor],-5
Cc1cc(Cl)c(S(=O)(=O)NCC2CCCO2)cc1OCC(=O)NC1CCCCC1 (stereo not given),2%,-1.3,-4,-2,0%,-3
CC1(Oc2cccnc2Cl)CCN(Cc2ccc(OC(F)(F)F)cc2)C1 (stereo not given),nt,-5.0,7,2,nt,-11
CN(CCOc1ccc(Cl)cc1)C(=O)CN1C(=O)NC2(CCCCC2)C1=O,5%,-2.0,0,3,15%,18
CCOc1ccc(NC(=O)CN2CCc3cc4c(cc3C2)OCCCO4)cc1OCC,5%,5.8,3,-2,6%,-9
COc1ccc(C)cc1NC(=O)c1cccc(C(=O)Nc2cc(C)ccc2OC)n1,11%,-2.7,8,-6,12%[15.4 µM],-17
COC(=O)CC1=NN(c2ccccc2)C(=O)C1,-21%,-17,12,-2,23%[15.4 µM],-16
O=C(COC(=O)c1nc(-c2ccccc2)n(-c2cccc(C(F)(F)F)c2)n1)NCc1cccs1,-13%,-1.4,-20,-9,-2%[15.4 µM],-16
C#CCNC(=O)C1=C[C@@H](C)C[C@@H](OCc2ccc(CO)cc2)O1,3%,-0.8,3,-1,nt,-6
CCC(C)(C)NC(=O)C(c1ccccn1)N(C(=O)c1csnn1)c1ccc(C)cc1 (stereo not given),-1%,-0.4,10,7,-122%[inhibitor],-9
CN(C(=O)CN1C(=O)S/C(=C\c2ccccc2F)C1=O)C1CCS(=O)(=O)C1 (stereo not given),6%,-0.1,4,-8,?,7
COc1ccc(OCC(=O)N2CC3(C)CC2CC(C)(C)C3)cc1 (stereo not given),-3%,-3.1,0,-15,-1%,-10
COCCCN(CC(=O)O)S(=O)(=O)c1cccc(Cl)c1,15%,2.0,-3,1,-21%,4
Cc1cc(C(=O)Nc2ccccc2C(=O)O)c(C)o1,-8%,1.5,-1,-5,-5%[15.4 µM],13
COc1ccc(C(=O)Nc2ccc(OCc3ccccc3)cc2)cc1[N+](=O)[O-],-11%,-7.3,10,-1,-18%,-13
Cc1nn(Cc2c(F)cccc2Cl)c(C)c1NC(=O)C1CC1,-7%,-3.7,9,9,4%[15.4 µM],-1
CCN(C(=O)c1cc(OC)c(OC)c(OC)c1)C1CCCCC1,nt,-2.4,-14,1,-25%,-11
O=C1N/C(=N\S(=O)(=O)c2ccccc2)S/C1=C\c1cc([N+](=O)[O-])ccc1O,18%,-13,-18,-10,20%,-25
O=C(Nc1nccs1)c1cccnc1,-1%,-2.2,2,3,-4%[15.4 µM],-5
